Arbovirus anti: antivirals against arbovirus infection; arbovirus infection cell-based antiviral screen; inhibition, % at 10 µM; 200,000 tested, 0.37% active;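 active = inhibition from about 30%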;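 also: bluetongue infection of BSR cells; cell survival read as ATP light after 72 h; 0% = infected wells without compound and 100% = uninfected wells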
Mtb bLac sens: beta-lactam sensitization of Mtb H37Rv | M. tuberculosis H37Rv growth with meropenem, percent inhibition; hits of this screen are not shown here | inhibition, % at 25 µM | 330,000 tested, 0.27% active | AID 434955;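 active = about 74% or more and at least 40 points above the plate without the antibiotic, then above 30% in a dose series; inconclusive = first-round hits that could not be retested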;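 also: growth measured after seven days incubation then overnight dye step; 0% = bacteria only wells and 100% = bacteria with antibiotic; twin plates without the antibiotic show which effects depend on it; some results filed as inactive read as strong as hits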
RecA intein inh: inhibitors of M. tuberculosis RecA intein splicing | cell-free RecA intein splicing, fluorescence | 290,000 tested, 0.75% active | inhibition, %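 (about 9 µM by stock and volumes)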 | P9WHJ3; in the data active = inhibition above about 30%; inconclusive = no clear call, values can overlap the other calls;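 also: 0% = vehicle wells and 100% = reference inhibitor control wells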
Target sequence (P9WHJ3 whole entry, looked up): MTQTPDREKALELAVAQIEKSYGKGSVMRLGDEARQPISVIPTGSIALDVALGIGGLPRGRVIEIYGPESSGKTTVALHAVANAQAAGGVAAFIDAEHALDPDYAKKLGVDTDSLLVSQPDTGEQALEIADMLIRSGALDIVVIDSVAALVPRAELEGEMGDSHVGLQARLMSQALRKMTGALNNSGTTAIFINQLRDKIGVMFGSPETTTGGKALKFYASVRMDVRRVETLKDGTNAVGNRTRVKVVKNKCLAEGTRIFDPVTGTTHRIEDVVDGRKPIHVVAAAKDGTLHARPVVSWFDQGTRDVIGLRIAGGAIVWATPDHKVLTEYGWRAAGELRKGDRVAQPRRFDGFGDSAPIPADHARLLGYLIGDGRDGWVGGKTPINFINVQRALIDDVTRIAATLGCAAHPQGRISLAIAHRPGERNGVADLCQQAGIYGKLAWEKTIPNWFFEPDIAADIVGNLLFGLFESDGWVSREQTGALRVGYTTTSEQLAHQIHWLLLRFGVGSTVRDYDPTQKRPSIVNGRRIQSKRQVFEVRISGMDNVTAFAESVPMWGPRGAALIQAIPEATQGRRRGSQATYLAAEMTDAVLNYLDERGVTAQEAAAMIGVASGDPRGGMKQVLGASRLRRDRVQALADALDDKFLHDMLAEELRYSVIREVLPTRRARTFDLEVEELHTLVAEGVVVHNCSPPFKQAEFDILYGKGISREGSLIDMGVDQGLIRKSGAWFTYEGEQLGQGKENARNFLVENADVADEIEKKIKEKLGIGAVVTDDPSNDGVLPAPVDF
YopH PTP inh: inhibitors of Yersinia enterocolitica YopH tyrosine phosphatase; fluorescence Ex485/Em525; inhibition, %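 (about 10 µM by stock and volumes)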; 140,000 tested, 0.16% active; AID 898;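 active = inhibition of 50% or more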;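 also: controls were vehicle for no effect and minimum signal wells for full effect; inactives centre near -20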
Mtb H37Rv: M. tuberculosis H37Rv growth inhibitors, H37Rv strain (AID 1626). M. tuberculosis H37Rv growth inhibition; higher % means a stronger effect. inhibition, % at 10 µM; hits with a dose series show IC50 in µM. 220,000 tested, 0.95% active;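 active = confirmed in a dose series; inconclusive = inhibition above 80% but not taken into the dose series; inactive = below 80% or under 30% at every dose of the series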;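 also: bacteria incubated seven days before Alamar blue readout; 0% = bacteria only wells and 100% = bacteria with antibiotic wells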
Arbovirus anti repeat: also measured in Arbovirus anti; calls as there; inhibition, %; measured here: 10K subset replicate screen; many hits read low in the repeat;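 first of two repeat runs on a subset; 0% = infected and 100% = uninfected wells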
Numbers without * were called inactive; u = inconclusive; x = no result given. This is a subset; rates above refer to the full screens.

SMILES | Arbovirus anti | Mtb bLac sens | RecA intein inh | YopH PTP inh | Mtb H37Rv | others
COc1ccc(C2C(C#N)=C(N)Oc3n[nH]c(-c4ccccn4)c32)c(OC)c1OC (configuration not stated) | -2 | -5 | 13 | -28 | x
CCc1ccc(NC(=O)CSc2ccc(-c3cccnc3)nn2)cc1 | x | 91 | -4.8 | x | x
CCOc1ccc(NC(=O)CC2C(=O)N(c3cccc(OC)c3)C(=O)N2CCOC)cc1 (configuration not stated) | x | -9 | -3.4 | x | -2%
CC(NCC(O)COc1ccc(Br)cc1)c1ccccc1 (configuration not stated) | x | -1 | 3.6 | x | x
Cc1cc(OCc2cc(C(=O)N(C)C3CCOC3)no2)cc(C)c1Cl (configuration not stated) | x | 4 | 0.2 | x | x
COc1ccccc1/C(O)=C(\C#N)c1nc2ccccc2[nH]1 | 3 | -2 | -2.0 | x | 0%
CCN(CC)CCCN(Cc1cc2ccc(C)c(C)c2[nH]c1=O)C(=O)NC1CCCCC1 | -4 | 13 | -2.7 | -8 | -6%
COc1ccc(-c2c(C(=O)O)nc3ccccc3c2C(=O)O)cc1 | 6 | 22 | -1.2 | -20 | 37%
O=C(NNc1nc2ccccc2s1)Nc1ccc(Cl)c(Cl)c1 | x | -2 | -2.5 | x | 10%
COC(=O)C1C(O)=C(C=Nc2ccc3ccccc3c2)C(=O)CC1(C)C (configuration not stated) | 1 | 98 | -0.2 | x | 34µM*
CC(C)NC(=O)NC(=O)COc1c(F)c(F)cc(F)c1F | 2 | -7 | -7.6 | 13 | 1%
CC1Cc2ccccc2N1C(=O)CSc1ccccc1 (configuration not stated) | 30* | 71 | 3.8 | -16 | 0%
CC1CCCN(C(=O)Cn2nnc(-c3ccc(F)cc3)n2)C1 (configuration not stated) | x | 3 | 0.7 | x | x
Cc1csc(/C(C#N)=N/O)n1 | 3 | 3 | -0.4 | -48 | 4%
Cc1cc(S(=O)(=O)Nc2ccc(C(=O)NCCCN3CCCC3=O)cc2)ccc1F | x | -6 | -1.1 | x | x

Part of the list above in order of heavy-atom count, largest number first:
SMILES | Arbovirus anti | Mtb bLac sens | RecA intein inh | YopH PTP inh | Mtb H37Rv | others
CCN(CC)CCCN(Cc1cc2ccc(C)c(C)c2[nH]c1=O)C(=O)NC1CCCCC1 | -4 | 13 | -2.7 | -8 | -6%
COc1ccc(-c2c(C(=O)O)nc3ccccc3c2C(=O)O)cc1 | 6 | 22 | -1.2 | -20 | 37%
O=C(NNc1nc2ccccc2s1)Nc1ccc(Cl)c(Cl)c1 | x | -2 | -2.5 | x | 10%

The results go on.
SMILES | Arbovirus anti | Mtb bLac sens | RecA intein inh | YopH PTP inh | Mtb H37Rv | others
CCOC(=O)C1=C(COC(=O)/C=C/c2ccco2)NC(=O)NC1C (configuration not stated) | x | -7 | 0.1 | x | x
COc1ccc(S(=O)(=O)N2CCCCCC2)cc1Br | -1 | x | 0.0 | x | -1%
CC1CCCCC1NC(=S)Nc1ccc(SC(F)F)cc1 (configuration not stated) | -44 | 89 | 5.6 | -5 | u
Cc1cc(C)c(C#N)c(SCc2c(F)cccc2[N+](=O)[O-])n1 | -12 | -3 | 11 | -9 | 1%
COC(=O)CCC(=O)OC1(C)C(=O)C=C2C=C(C3CC3)OC=C2C1=O (configuration not stated) | x | -3 | -15 | x | -2%
C/C(=N\NC(=O)COc1ccc(C#N)cc1)c1ccc(N2CCOCC2)cc1 | 0 | -7 | 0.0 | -2 | 10%
Cc1[nH]c(=O)[nH]c(=O)c1S(=O)(=O)N1CCCC(C(=O)N2CCN(c3cccc(C(F)(F)F)c3)CC2)C1 (configuration not stated) | 12 | 2 | 0.4 | x | -4%
O=C1CN(C(=O)CC2C(=O)NCCN2Cc2ccccc2C(F)(F)F)CCN1 (configuration not stated) | x | 3 | -3.4 | x | x
CCC(=O)Nc1cccc(NC(=O)CSc2nnnn2C2CCCC2)c1 | 5 | 2 | -0.1 | -33 | 2%
CC(=O)Nc1ccc(S(=O)(=O)Nc2nc3nc(-c4ccccc4)cc(-c4ccccc4)n3n2)cc1 | x | -3 | -42 | x | x
CCOc1cc(/C=C(\C#N)C(=O)Nc2cccc(C(=O)O)c2)ccc1OCc1ccc(Br)cc1 | x | 22 | 6.2 | x | x
O=[N+]([O-])c1cccc(CSc2cccc[n+]2[O-])c1 | 16 | 5 | -2.3 | x | 10%
Cc1ccccc1-c1nc(CS(=O)(=O)CC(=O)N2CCN(C)CC2)c(C)o1 | x | 4 | -0.3 | x | x
COc1ccc(Cl)cc1NS(=O)(=O)c1cc(Br)cnc1N | x | 3 | 0.7 | x | x
CC(C)=C1C(=O)NN(c2ccc(C)c(Cl)c2)C1=O | -39 | -4 | 7.3 | -31 | 12%

By substructure, those above with bromine (4)
SMILES | Arbovirus anti | Mtb bLac sens | RecA intein inh | YopH PTP inh | Mtb H37Rv | others
CC(NCC(O)COc1ccc(Br)cc1)c1ccccc1 (configuration not stated) | x | -1 | 3.6 | x | x
COc1ccc(S(=O)(=O)N2CCCCCC2)cc1Br | -1 | x | 0.0 | x | -1%
CCOc1cc(/C=C(\C#N)C(=O)Nc2cccc(C(=O)O)c2)ccc1OCc1ccc(Br)cc1 | x | 22 | 6.2 | x | x
COc1ccc(Cl)cc1NS(=O)(=O)c1cc(Br)cnc1N | x | 3 | 0.7 | x | x

The list continues:
SMILES | Arbovirus anti | Mtb bLac sens | RecA intein inh | YopH PTP inh | Mtb H37Rv | others
COc1ccc(-c2cc(=O)oc3c(C)c(O)ccc23)cc1 | x | 8 | -5.4 | x | x
CC(=O)N(CCc1ccccc1)Cc1cc2cc(C)ccc2[nH]c1=O | x | 1 | -5.6 | x | x
CCSc1nnc(N2C(=O)CC(c3ccsc3)C3=C2CC(C)(C)CC3=O)s1 (configuration not stated) | 0 | 5 | 1.7 | -7 | -9% | Arbovirus anti repeat=2
CCOC(=O)c1c(C)oc2ccc(OS(C)(=O)=O)cc12 | -3 | -6 | -2.9 | x | 0%
O=C(NCc1ccccc1Cl)c1cnccc1C(F)(F)F | x | 4 | 3.9 | x | -3%
CC(OC(=O)/C(C#N)=C/c1ccc(N(C)C)cc1)C(=O)N(C)c1ccccc1 (configuration not stated) | x | -1 | 3.5 | x | x
COc1cccc(C(=O)N2CCN(C3CCN(Cc4ccccc4)CC3)CC2)c1OC | x | -2 | -4.5 | x | -1%
COC(=O)[C@H](Cc1ccccc1)NC(=O)O[C@H]1C(=O)c2ccc(OC)cc2O[C@@H]1c1ccc2c(c1)OCO2 | 2 | 2 | -1.4 | -36 | 1%
OCCNCc1ccc(OCc2ccc(Cl)cc2Cl)cc1 | -32 | 7 | 1.3 | x | 45%
NC(=O)c1ccc(NC(=O)CN2C(=O)NC(c3ccccc3)(c3ccccc3)C2=O)cc1 | x | 3 | 2.8 | x | x
Cc1nn(C)c(C)c1NC(=O)CC12CC3CC(CC(C3)C1)C2 | 8 | -7 | -1.4 | x | -2%
CCc1ccccc1NC(=O)C1CCCN(S(=O)(=O)c2ccc3c(c2)CC(C)N3C(C)=O)C1 (configuration not stated) | x | -10 | 2.3 | x | x
CCOc1ccc(C(=O)c2ccncc2)cc1 | -4 | -1 | -2.4 | -25 | -2%
Fc1ccc(-c2nnc(N3CCOCC3)c3ccccc23)cc1F | x | -3 | 4.1 | x | x
COc1ccc2nc3oc(C(=O)Nc4ccc(OC)c(OC)c4)cc3cc2c1 | -3 | -2 | -18 | -36 | -5%

Five records drawn at random from those above, as already listed:
SMILES | Arbovirus anti | Mtb bLac sens | RecA intein inh | YopH PTP inh | Mtb H37Rv | others
CCOC(=O)c1c(C)oc2ccc(OS(C)(=O)=O)cc12 | -3 | -6 | -2.9 | x | 0%
Fc1ccc(-c2nnc(N3CCOCC3)c3ccccc23)cc1F | x | -3 | 4.1 | x | x
CCSc1nnc(N2C(=O)CC(c3ccsc3)C3=C2CC(C)(C)CC3=O)s1 (configuration not stated) | 0 | 5 | 1.7 | -7 | -9% | Arbovirus anti repeat=2
COc1ccc(-c2cc(=O)oc3c(C)c(O)ccc23)cc1 | x | 8 | -5.4 | x | x
CCc1ccccc1NC(=O)C1CCCN(S(=O)(=O)c2ccc3c(c2)CC(C)N3C(C)=O)C1 (configuration not stated) | x | -10 | 2.3 | x | x

(continued)
SMILES | Arbovirus anti | Mtb bLac sens | RecA intein inh | YopH PTP inh | Mtb H37Rv | others
CCOC(=O)/C(=C/c1c2ccccc2cc2ccccc12)NC(=O)c1ccccc1 | -15 | -4 | 0.9 | -31 | 1%
COC(=O)C1C(O)C(C)C(O)C(C)/C=C\C=C(/C)C(=O)Nc2c(C)c(OC(C)=O)c3c(c2O)C(=O)C(C)=C2OCOC(=C23)/C(C)=C/C(C)(O)C(O)C(C)C1O (configuration not stated) | x | 99 | -8.0 | x | u
CCOC(=O)C1(CC2CCCCO2)CCN(C(=O)Nc2ccc(SC)cc2)CC1 (configuration not stated) | 1 | 0 | -0.2 | x | 1%
CCCCN(CCCC)C(=O)c1nsnc1-c1ccccc1O | 1 | -5 | 5.6 | -12 | 0%
CCN(CCCNC(=O)c1cc2c(-c3cccc(OC)c3)nn(C)c2s1)Cc1ccccc1 | x | 42 | 1.4 | x | x
NS(=O)(=O)c1ccc(CNC(=O)CSc2ccccc2)cc1 | 5 | -2 | 0.8 | x | -8%
CSCc1cc(N(C)C)nc(SCc2ccc(Cl)c(Cl)c2)n1 | 14 | 10 | 9.0 | -34 | 7%
O=C(NC(=S)N1CCN(c2ccc([N+](=O)[O-])cc2)CC1)c1ccc(F)cc1 | 5 | -1 | 1.4 | -18 | 4%
O=C(c1ccc(S(=O)(=O)N2CCCC2)cc1)N1CCCC(C(F)(F)F)C1 (configuration not stated) | x | 3 | 0.9 | x | x
O=C(NCc1ccccc1)C1CCCN1S(=O)(=O)c1cccc2cccnc12 (configuration not stated) | 2 | 5 | -0.2 | 80* | -11%
CC(=O)Nc1cc(N=Cc2ccc(O)cc2O)c(Cl)cc1Cl | 12 | -5 | 1.8 | -24 | 1%
COc1ccc(C=O)cc1CN1C(=O)c2ccccc2C1=O | x | 2 | 0.7 | x | x
CCOC(=O)CN1C2=NCCN2c2ccccc21 | 13 | 8 | 0.1 | -6 | -15%
COc1ccc(CCNC(=O)c2cc3c(=O)n4cccc(C)c4nc3n(CCCN3CCOCC3)c2=N)cc1 | x | 7 | -3.0 | x | x
COc1cc2c3nnc(-c4ccc(F)cc4)c-3cn(Cc3cccc(F)c3)c2cc1OC | -7 | -2 | -55 | x | 34%
Cc1ccc(OCCCC(=O)N2CCOCC2)c(C)c1 | -6 | 59 | 1.3 | -25 | 6%
O=C(CSc1nc(C2CCCCC2)nc2ccccc12)NCc1ccc2c(c1)OCO2 | -7 | 4 | 1.6 | -14 | 4%
Cc1cc(S(=O)(=O)N2CCN(Cc3ccccc3)CC2)c(C)s1 | -1 | -3 | 3.2 | -39 | 7% | Arbovirus anti repeat=-1
CN1CCN(C(=O)CCN2C(=O)/C(=C/c3cccc(Br)c3)SC2=S)CC1 | x | -3 | 3.8 | x | x
NS(=O)(=O)c1ccc(NC(=O)Nc2cccc(Cl)c2)cc1 | -18 | -8 | 2.1 | x | -2%
Cc1cc(=O)n2[nH]c(SCc3ccc(Cl)cc3)nc2n1 | x | -3 | 2.3 | x | -9%
CCOC(=O)C(=Cc1ccc(-n2cncn2)cc1)C(=O)OCC | 3 | 51 | 0.2 | x | 0%
COc1ccc(C2(C(=O)Nc3ccc(C(=O)O)cc3)CCOCC2)cc1 | -1 | -7 | -4.9 | -15 | -6%
COc1ccc(S(=O)(=O)NC(CC(=O)N2CCC3(CC2)OCCO3)C(C)C)cc1 (configuration not stated) | -4 | -4 | -2.0 | -8 | -7%
COc1ccccc1OCC#CCSc1ncccn1 | 0 | -4 | 1.9 | x | 4%
Cc1cc(C)c(NC(=O)CNC(=O)Cc2sc(C)nc2-c2ccc(F)cc2)c(C)c1 | x | -9 | -0.1 | x | x
C=C1CC[C@@]2(O)[C@H]3Cc4ccc(O)c5c4[C@@]2(CCN3CC2CC2)[C@H]1O5 | -2 | -5 | -2.8 | -46 | 18%
Cc1ncc(C(=O)O)c(C(=O)O)c1N | x | 9 | -8.0 | x | 2%
CC(C)OCCCN1CC(=O)N2[C@@H](Cc3c([nH]c4ccccc34)C2(C)C)C1=O | x | 2 | -2.0 | x | x
O=C(CCC(=O)N1CCN(S(=O)(=O)c2ccc(Cl)cc2)CC1)NCc1ccccc1 | 0 | -4 | -1.8 | -16 | -4%
O=C(CSc1ncccc1-c1nc2ccccc2[nH]1)NCc1ccco1 | 1 | -5 | 0.8 | -5 | 11%
O=C(COC(=O)/C=C/c1ccccc1Cl)NC(=O)Cc1ccccc1 | 1 | 5 | -0.4 | 4 | -5%
CC(Cc1ccccc1)NCc1ccccc1O (configuration not stated) | 21 | -2 | -4.2 | x | 4%
O=C(COC(=O)C1CCC(=O)N1)Nc1ccccc1Br (configuration not stated) | 18 | 5 | -0.1 | x | 11%

Screens deposited in PubChem BioAssay by several laboratories.
